Source: PubChem BioAssay
VACV mCherry inh = qHTS for Stage-Specific Inhibitors of Vaccinia Orthopoxvirus: mCherry Reporter Primary qHTS | Vaccinia virus mCherry reporter infection, fluorescence; about a quarter of the inactives have no number | Potency, µM (doses to about 36.5 µM), without a hit: top-dose activity change, negative = inhibition, actives largely listed as inhibitors | actives 0.63% (n = 310,000) | AID 720579, 2013; active = well fitted inhibition curve with a large enough effect; inconclusive = small, poorly fitted or top-dose-only effect; inactive = no such curve, though single readings can be large or run the other way; tested in A549 cells; note: nearly all actives have a fitted effect of over 35% in size; inactives centre near -10
VACV Venus inh = qHTS for Stage-Specific Inhibitors of Vaccinia Orthopoxvirus: Venus Reporter Primary qHTS; Vaccinia virus Venus reporter expression, fluorescence; Potency, µM (highest dose often 36.5 µM), without a hit: at the top dose activity change, negative = inhibition, most hits filed as inhibitors; actives 0.46% (n = 330,000); active means well fitted inhibition curve with a large enough effect; inconclusive means small, poorly fitted or top-dose-only effect; inactive means no such curve, though single readings can be large or run the other way; tested in A549 cells; note: nearly all actives have a fitted effect of over 30% in size; inactives centre near -10
* hit, by the source's call; i = inactive; ? = inconclusive; . = not tested or not shown; & = joins results of further samples; [ ] = dose if it differs, or a comment. % is set by controls: 0 for no effect and ±100 for the full control effect; potency is the fitted concentration of half-maximal effect.

SMILES	VACV mCherry inh	VACV Venus inh
Cc1cccc(-n2c(C)cc(/C=C3\C(=N)N4N=C(CC(C)C)SC4=NC3=O)c2C)c1	-19.1%	-9.1%
O=C(Nc1ccc(F)cc1F)NC1CCN(S(=O)(=O)c2ccc(F)cc2)CC1	i	-30.0%
Cc1ccc(CNC(=O)CSc2nc3n[nH]c(C)c3c(=N)n2-c2ccccc2Cl)cc1	-5.8%	-2.6%
CN(CCC#N)CC(=O)Nc1ccc(S(N)(=O)=O)cc1	-11.3%	-12.0%
Cc1ccc(S(=O)(=O)N(Cc2ccc(Cl)cc2)c2ccccc2C(=O)NCc2cccnc2)cc1	-25.5%	?
O=C(N/N=C/c1ccc(Br)cc1)c1ccc(Br)o1	?	?
CCOc1ccccc1Cn1c(=O)sc2ccccc21	-2.0%	-8.5%
Cc1cc(C)c(S(=O)(=O)Nc2cccc(C(=O)O)c2)cc1S(=O)(=O)Nc1cccc(C(=O)O)c1	-6.9%	-7.0%
CN(C[C@H](CC1CCCCC1)N(C[C@H](Cc1ccccc1)N(CCc1ccccc1)N=O)N=O)N=O	-24.2%	-7.0%
O=C(CSCCO)Nc1ccc([N+](=O)[O-])cc1	11.1%	5.9%
CCN(c1ccccc1)S(=O)(=O)c1ccc(C(=O)Oc2ccc(C(C)=O)cc2)cc1	i	-5.6%
Nc1ccccc1-c1nnc2n1CCCCC2	-10.4%	-14.6%
Cc1ccc2[nH]c(=O)c3cc(C(=O)NCC4CCCO4)sc3c2c1 (configuration not stated)	-7.9%	-2.1%
CN(C)c1ccc(-c2cc(NCc3ccccc3)ncn2)cc1	-8.8%	-7.1%
Cc1ccnc(NC(=O)CNC(=O)c2ccc3c(c2)OCO3)c1	-14.3%	1.8%
COC(=O)c1ccc(CNC(=O)C2CCC(=O)N(CCc3ccccn3)C2)cc1 (configuration not stated)	-9.7%	-11.5%
CCOC(=O)N1CCN(C(=O)C(C)n2nc(C)n3c(cc4sccc43)c2=O)CC1 (configuration not stated)	-0.2%	-14.7%
Cc1ccc(Cl)cc1N1CCN(C(=O)Cn2cnc3nc4c(cc3c2=O)CCCC4)CC1	-24.9%	?
CCOc1cc(C(=O)NCCOC)ccc1OC	.	-13.1%
CCCn1c(SCC(=O)Nc2ccc3c(c2)CCC3)n[nH]c1=O	-5.0%	-4.5%
Cc1cc(OC(=O)c2ccccc2[N+](=O)[O-])c([N+](=O)[O-])c(=O)[nH]1	i	-11.2%
CCOC(=O)C(NC(C)=O)(Nc1ccc(F)cc1)C(F)(F)F (configuration not stated)	.	?
Cc1cccc(-c2nnc(-c3cccc(NC(=O)Cc4cccs4)c3)o2)c1	-25.0%	-13.2%
Clc1ccc(-c2csc3ncnc(Sc4nnnn4C4CC4)c23)cc1	?	?
CCc1ccccc1NC(=O)COc1cccc2ccc(C)nc12	-17.6%	-5.9%
(cont.)
SMILES	VACV mCherry inh	VACV Venus inh
CSc1ccc(CNC(=O)Cn2ccc3cc(S(=O)(=O)N4CCCC4)ccc32)cc1	-8.5%	-10.1%
CCOc1ccccc1C(=O)Nc1nnc(COC)s1	-1.6%&-8.3%	-5.0%&-0.3%
CC(=O)NC(CC(=O)N(C)Cc1cccc(Cl)c1Cl)c1ccccc1 (configuration not stated)	-4.6%	-16.2%
O=C(Nc1cccc(S(=O)(=O)N2CCCCCC2)c1)C1CC(=O)N(c2ccc3c(c2)OCCO3)C1 (configuration not stated)	-29.7%	-23.9%
Cc1ccc(Nc2cc(=O)[nH]c(=O)[nH]2)cc1Cl	-7.9%	-0.4%
O=C(NCC1CCCO1)c1cccc(N2CCCC2=O)c1 (configuration not stated)	-9.6%	0.6%
Cc1cc(C)n(-c2nc3ccccc3nc2Nc2ccc(C(C)C)cc2)n1	-14.1%	-1.2%
C=CCn1c(=O)c(C(C)=O)cn(N(C)c2ncc(C(F)(F)F)cc2Cl)c1=O	1.3%	-4.5%
O=C(Cc1ccc(F)cc1)N1CCOCC1	-11.2%	-14.8%
COc1ccccc1CN(C)C(=O)C(c1ccccc1)c1ccccc1	-13.2%	-26.0%
O=C(NCCCn1ccnc1)C(=O)Nc1ccccc1	-11.2%	-2.7%
O=C(c1cccs1)N1CCN(C2CCN(Cc3ccccc3)CC2)CC1	-17.5%	-12.8%
COc1ccccc1-n1cnc2sc(-c3ccccc3)cc2c1=O	-9.9%	0.1%
CC(=O)C1=C(O)C(=O)N(CCC(=O)O)C1c1cccc(F)c1 (configuration not stated)	-17.3%	-6.4%
COc1ccc(-c2[nH]ncc2/C=N\NC(=O)c2ccc(Br)o2)cc1OC	-0.7%	-14.5%
C=CCn1c(SCC(=O)Nc2nc3ccccc3s2)nnc1-c1ccccc1O	-16.6%	-29.3%
Nc1ccc2oc(C3CCCCC3)nc2c1	?	0.0%
CN1CCC(=O)N([C@H](COc2ccccc2)Cc2ccccc2)CC1	-12.5%	-0.9%&-4.3%
Cc1cccc(C)c1NC(=S)N1CCCCCC1	-3.4%	-16.8%
O=S(=O)(/N=C(/Nc1ccccc1F)c1ccccc1)c1ccccc1	.	-10.6%
CC(C)CNc1ncnc2[nH]ncc12	-5.5%	-8.3%
C(=C\n1nnc2ccccc21)/c1ccc[nH]1	?	-4.9%
O=c1[nH]c(SCc2n[nH]c(=S)n2-c2ccccc2)nc2sc3c(c12)CCC3	-14.4%	-21.6%
CCn1c(N)c(C(=O)NCc2ccc3c(c2)OCO3)sc1=S	.	-0.8%
O=S1(=O)NC[C@]23C[C@H](c4ccc(F)cc4)[C@@H](C[C@@H]21)O3	i	-1.5%

3 compounds already listed, ordered by molar mass, largest number first.
SMILES	VACV mCherry inh	VACV Venus inh
O=c1[nH]c(SCc2n[nH]c(=S)n2-c2ccccc2)nc2sc3c(c12)CCC3	-14.4%	-21.6%
O=S(=O)(/N=C(/Nc1ccccc1F)c1ccccc1)c1ccccc1	.	-10.6%
O=C(NCC1CCCO1)c1cccc(N2CCCC2=O)c1 (configuration not stated)	-9.6%	0.6%

Back to the main list; the three compounds before the break are reprinted first.
SMILES	VACV mCherry inh	VACV Venus inh
O=c1[nH]c(SCc2n[nH]c(=S)n2-c2ccccc2)nc2sc3c(c12)CCC3	-14.4%	-21.6%
CCn1c(N)c(C(=O)NCc2ccc3c(c2)OCO3)sc1=S	.	-0.8%
O=S1(=O)NC[C@]23C[C@H](c4ccc(F)cc4)[C@@H](C[C@@H]21)O3	i	-1.5%
Cc1cc(C)c(NC(=S)NC(NC(=O)c2ccccc2)C(Cl)(Cl)Cl)c(C)c1 (configuration not stated)	?	?
OCCC1CN(Cc2cccn2-c2ccccn2)CCN1C1CCCC1 (configuration not stated)	-11.6%	-6.0%
Cc1cccc(-n2cnc3cc(C(=O)NCC4CCCO4)ccc32)c1 (configuration not stated)	?	-23.5%
CC(=O)Nc1cnc(/C=C\CCCO)cn1	45.8%[activator]	-7.2%
Cc1ccc(S(=O)(=O)N2C[C@H]3C(=O)C[C@@H](c4ccccc4)N(S(=O)(=O)c4ccccc4C)[C@H]3C[C@H]2c2ccccc2)cc1	-4.2%	4.3%
CN(C)c1ccc(Nc2c3c4c(cccc4n(C)c2=O)C(=O)c2ccccc2-3)cc1	i	?
Fc1ccc(Br)cc1/C=N/n1cnnc1	.	-12.9%
COc1ccc(N=C(C)c2c(O)n(C)c(=O)n(C)c2=O)c(OC)c1	-21.3%[1.46 µM]	-4.4%
O=C(C1CC1)N1CCc2cc(Br)cc(S(=O)(=O)N3CCN(c4ccccc4)CC3)c21	-8.4%	-8.1%
CCCCCCN(C(=O)CCCCCN1C(=O)NC(c2ccc([N+](=O)[O-])cc2)C(C(=O)OCc2ccccc2)=C1C)C(C(=O)NCCCC)C1CCCCC1 (configuration not stated)	-3.9%	-4.1%
CC(C)(C)c1ccc(OCCCNC2CCCC2)cc1	-18.1%	-26.1%
O=C(c1cc(COc2ccc(F)cc2F)on1)N1C[C@H]2CC[C@H]1C2	-20.8%	-29.3%
CCOc1ccc(NC(=O)C2CCN(C(=O)C3CC(=O)N(c4ccc(C)cc4)C3)CC2)cc1 (configuration not stated)	29.3%	-3.5%
Cc1ccc(F)cc1C(=O)N1CCCC1(C)C(=O)NCC(C)C (configuration not stated)	20.8%	-0.2%
O=C(NCCCN1CCCC1=O)C1CCC(CNS(=O)(=O)c2ccc(Cl)cc2)CC1 (configuration not stated)	-10.0%[7.34 µM]	-9.7%[7.34 µM]
CCOC(=O)c1cccc(NC(=O)c2cc(S(=O)(=O)N3CCCC(C)C3)cn2C)c1 (configuration not stated)	?	?
c1ccc(Cn2nc(-c3ccccc3)nc2-c2ccccc2)cc1	i	-12.0%
CC(C)N1C/C(=C/c2cccnc2)C(=O)/C(=C/c2cccnc2)C1	i	-9.4%
O=C(CNC(=O)c1cccc(Cl)c1)N/N=C/C=C/c1ccccc1	i	-6.6%
COc1ccc(-c2ccc3c(c2)C2CC3CCN2C(=O)C(C)(C)C)cc1 (configuration not stated)	?	-14.9%
COc1ccc(-c2cc(C(F)(F)F)nc(SCC(=O)NCc3cccs3)n2)cc1OC	i	-10.4%
NS(=O)(=O)c1ccc(CNS(=O)(=O)c2ccc3ccccc3c2)cc1	-18.8%	-29.3%
Cc1ncc(COCc2ccccc2)c(CO)c1OCc1ccccc1	-8.1%	-3.0%
N#Cc1ccc(-c2nc3c(Cl)cc(C(F)(F)F)cn3c2Cc2ccccc2C(F)(F)F)cc1	13.4%	3.7%
CCc1cccc(C)c1NC(=O)CCCSc1nc2ccccc2s1	-13.5%	-26.7%
Carrying on:
SMILES	VACV mCherry inh	VACV Venus inh
c1ccc(SC23CCCCN(CCC2)C32OCCO2)cc1 (configuration not stated)	24.3%	-4.7%
CCCCOP(=O)(c1ccc(N(C)C)cc1)C(O)c1ccc(OC)c(OC)c1 (configuration not stated)	i	-6.9%
Cc1ccc(S(=O)(=O)N2CCN(C(=O)c3ccc(-n4cncn4)c([N+](=O)[O-])c3)CC2)cc1	i	-10.2%
O=C(Nc1nc2ccccc2n1CCN1CCOCC1)c1ccc(COc2ccccc2Br)o1	?	-26.9%
NS(=O)(=O)c1cccc(NC(=O)CSc2nnnn2-c2ccccc2)c1	-4.0%	-8.2%
Cc1onc(-c2ccccc2)c1-c1nnc(COC(=O)c2ccc(N(C)C)cc2)o1	?	-12.9%
Cc1ccc(-c2nc3ccccn3c2Nc2ccccc2C)s1	10.1%	3.0%
Cc1cccc(NC(=O)c2ccc3c(c2)CCN3S(=O)(=O)c2ccccc2)c1C	-2.1%	-8.5%
Cc1ccc(NS(=O)(=O)c2ccc3c(c2)NC(=O)CCS3)c(C)c1	-10.9%	-17.5%
Cc1cc(OCCCCn2ccnc2)cc(C)c1Cl	-11.0%	-7.5%
Cc1ccc(OCC(=O)Nc2nnn(C)n2)c(C)c1	-8.8%	-14.5%
CCN(CC)S(=O)(=O)c1ccc2c(c1)nc(CCC(=O)Nc1ccccc1Cc1ccccc1)n2CC	-3.6%	-19.2%
CCOC(=O)c1ccc(NC(=O)c2cc(S(=O)(=O)N3CCOCC3)cn2C)cc1	-21.1%	-4.9%
COC(=O)C1=C(N)Oc2cc(N(C)C)ccc2C1c1ccccc1OC (configuration not stated)	?	?
CC(C)(C)c1ccc(NC(=O)CSc2n[nH]c(=O)n2-c2cccnc2)cc1	-14.3%	-10.3%
Cc1ccccc1CNC(=O)C(=O)NCCC1CCCCN1S(=O)(=O)c1cccs1 (configuration not stated)	-22.2%	?
N#C/C(=C1\C(=O)Nc2c(Cl)cc(Cl)cc21)c1nnc2n1CCCCC2	-11.7%	-0.4%
Cc1ccc(S(=O)(=O)N2C[C@H]3N(C(=O)OC(C)C)N(C(=O)OC(C)C)C[C@H](OC(=O)NC4CCCC4)[C@@]3(O)C2)cc1	-11.1%	-22.2%
CCCNC(=O)C1(C)CCCN(C(=O)c2cccc(C(F)(F)F)c2)C1 (configuration not stated)	-2.1%	8.3%
O=C(C[C@@H]1C/C=C\CCC(=O)OC[C@H](Cc2ccccc2)NC1=O)N[C@@H](CO)Cc1ccccc1	?	-16.3%
O=c1[nH]cnc2[nH]ncc12	-16.7%&-14.4%	-7.5%&-8.8%
COC(=O)[C@@H]1CCCN1Cc1ccc2c(c1)CN(Cc1ccc3c(c1)CCCN3C)CCO2	-14.7%	0.0%
CC(C)c1ccc(NC(=O)[C@H](NC(=O)[C@@H]2Cc3ccccc3CN2)c2ccccc2)cc1	-3.6%	-25.8%
COc1ccc(C2CCCN2C(=S)Nc2ccc(C)cc2Cl)cc1OC (configuration not stated)	i	0.9%
COc1ccc(OC)c(NC(=O)COC(=O)CCCN=C2NS(=O)(=O)c3ccccc32)c1	-18.8%	7.2%
The listing continues:
SMILES	VACV mCherry inh	VACV Venus inh
COC(=O)CSc1nc2ccccn2c(=O)c1C=O	i	-8.2%
Cc1c(C(=O)NCc2ccc(F)cc2)sc(=O)n1Cc1ccccc1	0.5%	9.5%
COc1ccc(-c2csc(C(C)(O)c3ccc(F)c(F)c3)n2)cc1OC (configuration not stated)	-9.2%	-0.4%
COc1ccccc1CNC(=O)C(CCSC)NC(=O)c1cccc(S(=O)(=O)N2CCOCC2)c1 (configuration not stated)	-16.5%	-15.9%
Cc1nn(CCCC(=O)Nc2cc(Oc3ccc(F)cc3)cc([N+](=O)[O-])c2)c(C)c1[N+](=O)[O-]	?	?
CCNC(=O)CSc1nnc(-c2ccccc2)n1-c1ccc(OCC)cc1	-15.0%	-2.0%
Cc1cccc(C)c1-n1nnnc1C(c1ccccc1OC(F)(F)F)N1CCC(n2c(=O)[nH]c3ccccc32)CC1 (configuration not stated)	?	?
O=C(c1ccco1)N1CCN(C(=O)c2cccc3c2C(=O)N(C2CCCCC2)C3)CC1	i	2.0%
